Screening results as filed in PubChem BioAssay.
Anaer choline gr = blocks anaerobic gram-negative growth on choline; hit rate 0.2% among 55,000; Gram-negative bacterium anaerobic choline minimal medium, absorbance growth; active compounds read low; many inactives read as strong as hits in the columns shown; calls only; AID 1963822;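 active means growth z-score on choline under -2 at 7 or 20 h with little or no fall on glycerol, limits in tiers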;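 further: stock transfer was 300 nL into about 50 µL; the organism is E. coli; final concentration not given here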
Anaer choline gr early = second read-out of Anaer choline gr, no call of its own (marks repeat the call); z-score; measured here: choline growth z-score, timepoint 1;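 score of optical density at 7 h as mean of two plates; lower means less growth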
* = called active by the depositor; i = inactive. This is a subset; rates above refer to the full screens.

SMILES | Anaer choline gr | Anaer choline gr early
CC(C)C[C@H](CN)CC(=O)O | i | 0.92
